Polio RdRp inh: poliovirus RNA polymerase inhibition; poliovirus polymerase elongation, fluorescence polarization; active compounds read low; % elongation, % (compound at 16.7 µg/mL); 150,000 compounds, 0.66% hits; AID 588519; in the data active = % elongation below about 90%; note: some results filed as inactive read as strong as hits
Target sequence (P03300 1749-2209 limits assumed): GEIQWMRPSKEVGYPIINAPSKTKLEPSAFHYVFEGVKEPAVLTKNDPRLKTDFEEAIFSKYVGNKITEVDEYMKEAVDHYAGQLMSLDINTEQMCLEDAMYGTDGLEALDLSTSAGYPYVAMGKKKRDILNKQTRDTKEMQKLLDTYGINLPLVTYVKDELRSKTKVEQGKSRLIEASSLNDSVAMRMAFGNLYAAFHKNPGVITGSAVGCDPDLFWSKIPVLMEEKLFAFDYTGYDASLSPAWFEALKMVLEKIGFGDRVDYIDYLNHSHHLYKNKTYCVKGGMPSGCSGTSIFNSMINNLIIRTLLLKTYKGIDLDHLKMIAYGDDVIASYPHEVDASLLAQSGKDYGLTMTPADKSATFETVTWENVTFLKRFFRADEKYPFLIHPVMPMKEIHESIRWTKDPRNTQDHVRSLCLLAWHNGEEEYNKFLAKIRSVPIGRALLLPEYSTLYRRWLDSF
Mtb MenB inh: inhibitors of Mycobacterium tuberculosis MenB enzyme; 100,000 compounds, 0.43% hits; P9WNP5; inhibition, %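 (about 12 µg/mL by stock and volumes)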; MenB enzyme assay, absorbance read-out; some hits fall short of the stated cut;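 active = mean of two replicates above 30%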;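 note: 0% = no compound and 100% = wells with inactive enzyme; the first replicate is given; strong numbers were not always called active; inactives centre near -10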
Target sequence (P9WNP5 whole entry, looked up): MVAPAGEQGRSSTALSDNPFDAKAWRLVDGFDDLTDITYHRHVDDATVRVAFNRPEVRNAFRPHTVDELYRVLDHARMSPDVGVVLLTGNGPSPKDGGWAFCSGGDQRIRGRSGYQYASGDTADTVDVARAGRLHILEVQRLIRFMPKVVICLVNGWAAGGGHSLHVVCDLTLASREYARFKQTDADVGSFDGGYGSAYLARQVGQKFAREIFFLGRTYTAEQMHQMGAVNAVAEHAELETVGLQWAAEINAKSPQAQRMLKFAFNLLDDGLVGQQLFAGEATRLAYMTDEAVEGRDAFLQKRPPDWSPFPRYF
Mtb MbtI inh: MbtI salicylate synthase inhibition; P9WFX0; purified MbtI enzyme, fluorescence intensity read-out; inhibition, %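 (about 17 µg/mL by stock and volumes)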; 100,000 compounds, 0.89% hits; AID 493033;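 active = above 50% in both replicates, above 80% if mildly self-fluorescent; inactive = the rest, strongly fluorescent compounds included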;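 note: 0% = mean of negative and 100% = mean of positive controls; one replicate is shown; some compounds called inactive have numbers as strong as hits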
Polio RdRp inh intensity: further read-out of Polio RdRp inh, marked with its call; % elongation; measured here: total intensity read-out; formula for this scale not given here;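 total fluorescence in place of polarization; lower means less elongation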
Active calls of the source: *; . = no result given; & = joins results of further samples.

molecule,Polio RdRp inh,Polio RdRp inh intensity,Mtb MenB inh,Mtb MbtI inh
CN(C)C(=O)COc1ccc(Oc2ccccc2)cc1,103,104,.,-12
COc1ccc(C(=O)N2CCCC(C(=O)N3CCCCCC3)C2)cc1 (stereo not drawn),101,105,8,2
N#C/C(=C\c1ccc(-c2ccc(F)cc2)o1)C(=O)NCCc1ccccc1,106,125,-34,-2
O=C(N/N=C1/C(=O)c2cccc3cccc1c23)c1ccc(O)cc1,99,105,-23,17
CCCCCCc1cc(O)c2c(c1)OC(C)(C)C1=C2CCN(C)C1,99,101,30,-5
Cc1ccc(C2Nn3c(nnc3-c3ccccc3)SC2C(=O)NCC2CCCO2)cc1 (stereo not drawn),100,106,-11,-6
COc1ccc(-c2n[nH]c(=S)o2)cc1OC,100,98,-3,105
O=C(Nc1ccccc1Br)c1ccc2c(c1)N(Cc1ccc(F)cc1)C(=O)CS2=O (stereo not drawn),101,103,11,-6
Cc1ccc(C)c(SCC(=O)OCC(=O)N2CC(C)OC(C)C2)c1 (stereo not drawn),105,102,11,19
Cc1ccc(C)c(CN2CCN(Cc3ccccc3)CC2)c1,99,101,20,-5
Cc1nn(Cc2nnc(SCc3cccc(C(F)(F)F)c3)o2)c(C)c1Br,104,106,-15,2
COc1ccccc1NC(=O)C1=C(C)NC2=C(C(=O)CC(c3ccc(OC)c(OC)c3)C2)C1c1ccc(C)o1 (stereo not drawn),104,104,-24,69
O=C(Nc1ccc2c(c1)OCO2)C1c2ccccc2Oc2ccccc21,102,106,-6,-20
O=C(CCc1nc2ccccc2s1)OCc1nc2ccccc2s1,113,132,-1,-3
O=C(COn1nnc2ccc(Cl)cc21)NC1CCCc2ccccc21 (stereo not drawn),102,98,-27,-3
N#CCn1c(CSc2ncnc3sccc23)nc2ccccc2c1=O,61,241,-23,-2
O=C(NCCCc1ccccc1)c1cnc2ccccn2c1=O,101,104,-15,103
O=C(NCc1ccncc1)c1cc(-c2ccc(F)cc2)nc2ccccc12,100,95,.,20
CCOc1ccc2nc(SCC(=O)c3cccs3)sc2c1,105,110,-21,.
Cc1noc(/C=C/c2ccccc2F)c1S(=O)(=O)N1CCC(C(=O)NC2CCCCCC2)CC1,98,100,-9,7
CC(C)=NNc1nc(-c2ccccc2)cs1,104,105,-30,11
Nc1cc(=O)[nH]c2ncnn12,99,111,3,91
Cc1ccc(-n2c(=O)[nH]cc(C(=O)Nc3ccc(S(N)(=O)=O)cc3)c2=O)cc1C,102,103,-6,-20
COC(=O)C1=CO[C@@H](C)[C@H]2CN3CCc4c([nH]c5ccccc45)[C@@H]3C[C@H]12,99,102,-6,-10
Nc1nc(-c2ccc3c(c2)NC(=O)CO3)cs1,100,108,-49,-9
CC(C(=O)Nc1ccccc1C(=O)NC1CC1)N1C(=O)C2CC=CCC2C1=O (stereo not drawn),104,95,-15,-9
COCCNC(=O)c1cc(-c2ccccc2)on1,103,100,-27,-6
Nc1nc(N)n(-c2ccccc2)c(=Nc2ccccc2)n1,103,102,3,-7
CC1CCCC(C)N1C(=O)C1CC(c2ccccc2F)=NO1 (stereo not drawn),103,102,-23,-11
C=C(C)CSc1n[nH]c2nc3c(c(=O)n12)C(C)(CC)Cc1ccccc1-3 (stereo not drawn),105,102,-39,-61
CC(C)CN(CC(C)C)C(=O)CSc1nc2ccccc2[nH]1,105,103,-17,-16
O=C1c2ccccc2S(=O)(=O)N1CC1CC(c2ccccc2)=NO1 (stereo not drawn),101,103,-3,-7
CC(=O)N1C(=O)/C(=C(\C#N)C(=O)NCCc2ccccc2)c2ccccc21,102,106,.,-6
Cc1nnc2sc(-c3cccc(NC(=O)c4cccc(F)c4)c3)nn12,103,106,-18,-18
CCCn1c(=O)n(CCC)c2c(C)cc(C)cc21,118,120,-30,.
COCCN1C(=O)c2ccccc2N2C(=O)CCC12C(=O)Nc1ccc(C)cc1 (stereo not drawn),101,102,-5,10
O=C1CC(c2ccc(F)cc2)CC(O)=C1C=NCCN1CCN(C(=S)Nc2ccccc2)CC1 (stereo not drawn),102,106,-12,0
Cc1ccc(N)c(C(NCC(=O)NN)c2ccccc2)c1 (stereo not drawn),105,112,-31,-10
Cc1cc2ccccc2n1CCNC(=O)Cc1cccc2ccccc12,101,101,-63,24
CCOc1ccc(S(=O)(=O)Nc2cc(C(C)(C)C)nn2-c2ccccc2)cc1,104,105,-10,-3
O=C(CC1N=C2c3ccccc3N=C(SCC(=O)c3ccccc3)N2C1=O)NCCc1ccccc1 (stereo not drawn),100,99,-9,73
C=CCn1cnnc1SCC(=O)c1cc(C)n(CC(F)(F)F)c1C,107,100,-21,-2
Cc1ccc(CN2CCC(C(=O)NC(C)C)CC2)cc1,97,103,-2,.
CCOC(=O)c1sc(N)c(C#N)c1CSc1nnc2ccccn12,105,98,-34,-3
O=C(C1CCN(S(=O)(=O)c2cccs2)CC1)N1CCCC1c1nc2ccccc2s1 (stereo not drawn),100,102,-44,-5
O=C(O)/C=C/c1cn(-c2ccccc2)nc1-c1ccccc1,100,97,.,15
CCc1ccc(N2C(N)=C(C#N)C(c3cccc(Cl)c3)c3c(C)noc32)cc1 (stereo not drawn),103,102,-4,.
O=S(=O)(c1ccc(Cl)cc1)N1CCNCC1,102,102,-10,-16

Some of the entries above, set out differently.
O=C(C1CCN(S(=O)(=O)c2cccs2)CC1)N1CCCC1c1nc2ccccc2s1 (stereo not drawn)
  Polio RdRp inh: 100 | Polio RdRp inh intensity: 102 | Mtb MenB inh: -44 | Mtb MbtI inh: -5
CCc1ccc(N2C(N)=C(C#N)C(c3cccc(Cl)c3)c3c(C)noc32)cc1 (stereo not drawn)
  Polio RdRp inh: 103 | Polio RdRp inh intensity: 102 | Mtb MenB inh: -4 | Mtb MbtI inh: .
Cc1ccc(CN2CCC(C(=O)NC(C)C)CC2)cc1
  Polio RdRp inh: 97 | Polio RdRp inh intensity: 103 | Mtb MenB inh: -2 | Mtb MbtI inh: .
C=CCn1cnnc1SCC(=O)c1cc(C)n(CC(F)(F)F)c1C
  Polio RdRp inh: 107 | Polio RdRp inh intensity: 100 | Mtb MenB inh: -21 | Mtb MbtI inh: -2

Remaining list, next part
molecule,Polio RdRp inh,Polio RdRp inh intensity,Mtb MenB inh,Mtb MbtI inh
O=CN(c1ccccc1)c1ccccc1,103,103,-24,-17
CCC(=O)NCC[C@@H]1CCc2ccc3c(c21)CCO3,99,103,-6,-23
CCc1ccc(NC(=O)N2CC(C)CC(C)C2)cc1 (stereo not drawn),102,103,-27,-13
COc1ccc2nc(C)c3c(c2c1)OC(C)C3 (stereo not drawn),115,112,-19,.
CCCn1ccc2c(OCC(=O)c3ccccc3)cccc2c1=O,103,99,-20,6
COc1ccc(-c2csc(-c3ccc(O)cc3)n2)cc1,101,97,.,30
O=C(Cc1cn2ccsc2n1)NC12CC3CC(CC(C3)C1)C2,109,125,-45,-7
COc1cc(C)c2c(=O)c(-c3nc(C)cs3)coc2c1,103,104,-23,-2
Cc1ccc2c(c1)N(CC(N)=O)C(=O)CO2,102,104,7,-7
CNC(=O)CCCN1C(=O)c2ccccc2C1=O,102,104,-18,-14
Cc1cc(SCC(=O)Nc2ncc(Cl)cc2Cl)nc2ccccc12,103,101,.,15
CCC(C)N(C(=O)CSc1ccc2c(c1)OCCO2)C1CCS(=O)(=O)C1 (stereo not drawn),.,.,-1,-3
CCCN1C(=O)C2C(c3ccc(O)cc3)NN(Cc3ccccc3)C2C1=O (stereo not drawn),.,.,12,5
O=S(=O)(c1ccc(O)cc1)c1ccc(Cl)cc1,108,111,-7,12
CC(OC(=O)/C=C/c1cccs1)C(=O)Nc1ccc(S(N)(=O)=O)cc1 (stereo not drawn),100,103,-6,0
Cc1ccc(N(Cc2ccco2)C(=O)COc2ccc3oc(=O)cc(C)c3c2)cc1,98,100,-8,0
CCOC(=O)C1=C(C)C(c2ccc(OC)cc2)NC(=O)N1 (stereo not drawn),101,101,-3,-8
C=CCn1cnc2c(nnn2-c2ccc(OC)c(OC)c2)c1=O,104,104,-7,-1
O=c1[nH]c(=S)[nH]c(O)c1N=Nc1ccc(F)cc1,103,103,-173,20
COC(=O)c1cn(CC(=O)OCc2ccc(-n3nc(C)cc3C)cc2)c2ccccc12,102,103,-43,-2
COC(=O)N/N=C(\C)c1ccccc1OC,107,113,-17,-14
O=C(CC1Nc2c3ccccc3nc(=S)n2C1=O)NCc1cccc(Cl)c1 (stereo not drawn),99,101,-19,38
COc1ccccc1/C=C/C(=O)OCCN1CCCC1=O,101,105,.,-13
C(=N\n1cnnc1)/c1ccco1,105,127,4,.
Cc1nn(Cc2ccccc2Cl)c2sc(C(=O)Nc3sccc3C(N)=O)cc12,134,193,-19,-31
C(=C\c1ccccc1)/CSc1nnc(-c2cccnc2)o1,102,103,-13,-59
CC1=C(C(=O)Nc2ccc(Cl)cn2)C2(CCCCCC2)OC1=O,100,101,-28,-12
O=C(Oc1ccccc1Cl)C1=CC=CN2CCS(=O)(=O)N=C12,102,108,-23,100
CC(NS(=O)(=O)c1cccc2nsnc12)C(=O)OCc1cccc(C(F)(F)F)c1 (stereo not drawn),108,104,-32,-8
Cn1c(Sc2ncc(C#N)c(N)n2)nnc1-c1ccncc1,105,106,-8,8
CC/C(=C/c1ccccc1)CN1CCCCC1,102,101,.,-9
Cc1noc(C)c1CSc1ncccc1C(=O)N(C)c1ccc2ccccc2c1,106,120,-28,-8
CN(C)S(=O)(=O)c1ccc(C(=O)Nc2ccccc2C(=O)NCc2ccc3c(c2)OCO3)cc1,.,.,-5,-20
CCC1(C)NC(=O)N(Nc2ncnc3sc4c(c23)CCC4)C1=O (stereo not drawn),100,110,-36,2
Cc1ccc(C)c(SCC(=O)C(C#N)c2nc(C)cs2)c1 (stereo not drawn),111,128,-11,-3
O=C(NCCc1ccccc1)C(C(=O)c1ccccc1)n1ccccc1=O (stereo not drawn),103,103,7,.
O=C(O)c1cc(N2C(=O)C3C4c5ccccc5C(c5ccccc54)C3C2=O)ccc1N1CCOCC1 (stereo not drawn),101,104,-4,-9
O=C(CSc1nnc(-c2ccc(NS(=O)(=O)c3ccccc3)cc2)o1)NCC1CCCO1 (stereo not drawn),102,101,-10,15
COC(=O)c1cn(C)c2ccc(S(=O)(=O)N3CCCCC3)cc2c1=O,101,103,4,6
O=C(Cc1ccc(-n2c(=S)[nH]c3ccccc3c2=O)cc1)N1CCCC1,102,102,-30,7
CC(C)N1C2OC(C3OC4C(O3)N(C(C)C)S(=O)(=O)N4C(C)C)OC2N(C(C)C)S1(=O)=O (stereo not drawn),105,105,4,.
CCc1nc(SCC#N)c(C#N)cc1C,101,100,-8,-53
O=S(=O)(NCC(c1cccnc1)N1CCN(c2ccccc2F)CC1)c1cccs1 (stereo not drawn),100,102,1,4
CCCNC(=O)c1ccc(Cl)c(S(=O)(=O)Nc2ccccc2)c1,105,103,-23,-7
NC(=O)C1CCN(c2ncnc3c2cnn3-c2ccccc2)CC1,99&102,100&104,5,59
NC(=S)NN1C(=O)C2CC=CCC2C1=O (stereo not drawn),104,109,-5,-3
NC(=O)c1ccc2nc3ccsc3c(=O)n2c1,103,110,3,-34
COc1ccc(C2=NN(CCC(=O)NCCN3CCN(c4cccc(Cl)c4)CC3)C(=O)CC2)cc1,98,103,-11,0
CN(C)S(=O)(=O)c1ccc(C(=O)OCC(=O)c2cn(CCC#N)c3ccccc23)cc1,107,111,8,85
CC12CC3(C)CC(C)(C1)CC(C(=O)NC(=S)N1CCCC1)(C2)C3,102,96,6,11
C=C(C)CNC(=S)N=Nc1c(O)n(C)c2ccccc12,.,.,-70,17
Nc1nncn1C(=O)c1ccc(Br)cc1,101,103,-18,-6
Clc1ccc(-c2cn3cccnc3n2)cc1,100,104,-3,122
NS(=O)(=O)c1ccc(N2C(=O)Nc3ccccc3N2O)cc1,99,103,8,-5
O=C(Nc1ccc(-c2nc3ccc(Br)cc3c(=O)o2)cc1)c1ccco1,99,102,4,79
COc1ccc(S(=O)(=O)N2CCCC2C(=O)N2CCc3cc(OC)c(OC)cc3C2)cc1 (stereo not drawn),104,93,-21,-3

(cont.)
molecule,Polio RdRp inh,Polio RdRp inh intensity,Mtb MenB inh,Mtb MbtI inh
CCOc1cc(CCC(=O)NCCn2ccnc2C)on1,103,101,8,-21
CCN(CC)C(=O)c1ccc(N)cc1,103,107,-33,-8
CC(=O)Nc1ccccc1OCC(=O)Nc1cc(C)cc(C)c1,105,94,-38,-7
O=C(OCC(=O)N1CCCC1=O)c1ccc2ncsc2c1,95,97,-25,-5
Cc1ccc(-c2nn(CC(=O)NC3CCCc4ccccc43)c(=O)c3ccccc23)cc1 (stereo not drawn),103,101,4,-8
O=C(CN1C(=O)c2ccccc2C1=O)OCc1cc(=O)n2cc(Br)ccc2n1,97,102,-3,-2

Screens from PubChem.
